HPGD inh: inhibitors of human 15-hydroxyprostaglandin dehydrogenase (HPGD). P15428. purified HPGD, NADH fluorescence kinetic, PGE2 substrate. Potency, µM, for inactives: at the highest dose activity change, negative = inhibition, hits mostly inhibitors. actives 4.3% (n = 150,000). AID 894; active = well fitted inhibition curve with a large enough effect (not every such curve was filed as active); inconclusive = small, poorly fitted or top-dose-only effect, or another doubt; inactive = no such curve, though single readings can be large or run the other way;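 note: top concentration of the series not given in the record; plate controls included wells without enzyme; inactives centre near -10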
Target sequence (P15428 whole entry, looked up): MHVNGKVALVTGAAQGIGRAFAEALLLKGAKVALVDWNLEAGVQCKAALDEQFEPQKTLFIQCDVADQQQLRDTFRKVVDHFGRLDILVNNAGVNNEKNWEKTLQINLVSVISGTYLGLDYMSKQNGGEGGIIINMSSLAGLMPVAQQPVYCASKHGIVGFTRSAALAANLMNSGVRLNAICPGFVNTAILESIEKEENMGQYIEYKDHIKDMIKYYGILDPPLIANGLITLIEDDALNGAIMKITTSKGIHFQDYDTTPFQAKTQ
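NADH formation kinetics: reaction with 30 uM PGE2 and 1 mM NAD+ (final), 20 nM enzyme, Tris-HCl pH 8 with Tween 20, after 15 min compound preincubation at room temperature. Fluorescence change, last versus first of five reads.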
The depositor's hits bear a star; ? = inconclusive. % is set by controls: 0 for no effect and ±100 for the full control effect; potency is the fitted concentration of half-maximal effect.

HPGD inh	mol
?	Cn1cc([N+](=O)[O-])c(C(=O)Nc2ccc3nc(-c4ccccc4)[nH]c3c2)n1
-13%	Nn1c(SCC(=O)NC2CCCCC2)nnc1-c1ccccc1
-13%	Cc1ccc(-c2c3c(=O)n(C)c(=O)n(C)c3cn2Cc2cccnc2)cc1
?	COc1ccc2[nH]c(=O)c3c(c2c1)OC(C)(C)C=C3
-8%	COC(=O)N1[C@H](Cc2ccccc2)C=C[C@]1(C)C(=O)NCc1ccc(N(C)C)cc1
-8%	CC(=O)C1=C(O)C(=O)N(c2nccs2)C1c1ccccc1 (stereo unspecified)
-12%	CC(NS(=O)(=O)c1ccc2c(c1)OCCCO2)C(=O)O (stereo unspecified)
-10%	Cn1cccc1CC(=O)N/N=C\c1c2ccccc2cc2ccccc12

3 entries from above, with each value named:
Compound: Nn1c(SCC(=O)NC2CCCCC2)nnc1-c1ccccc1
  HPGD inh: -13%
Compound: Cc1ccc(-c2c3c(=O)n(C)c(=O)n(C)c3cn2Cc2cccnc2)cc1
  HPGD inh: -13%
Compound: COc1ccc2[nH]c(=O)c3c(c2c1)OC(C)(C)C=C3
  HPGD inh: ?

Additional compounds follow:
HPGD inh	mol
-2%	O=C(Nc1ccc(S(=O)(=O)N2CCOCC2)cc1)c1ccco1
-15%	O=C(c1cc(-c2cccnc2)nc2ccccc12)N1CCCc2ccccc21
-1%	CCC(CO)N=CC1=C(O)CC(C)(C)CC1=O (stereo unspecified)
-5%	Cc1cccc(NC(=S)NNC(=O)c2csc(C)c2)c1
-7%	Cc1ccc(S(=O)(=O)Nc2cc(C)nn2-c2ccccc2)cc1
-19%	CC(C)(C)C1CC=C2C(C#N)=C(N)C(C#N)(C#N)C(c3cccs3)C2C1 (stereo unspecified)
-4%	O=C(Nc1ccccc1)N1CC2(CCN(S(=O)(=O)c3ccccc3)CC2)C1
-5%	O=C(COC(=O)C1=COCCO1)Nc1ccccc1Oc1ccccc1
-14%	C/C(=N\OC(=O)NC1CCCCC1)c1sc(-c2ccccc2)nc1C
-10%	CCc1nnc(NC(=O)c2ccc(N(C)S(=O)(=O)c3ccccc3)cc2)s1
-3%	CC1=C(C(=O)NCCN2CCOCC2)C2(CCC(C)CC2)OC1=O (stereo unspecified)
-3%	O=C(Cn1ncc2c1-c1ccccc1OC2)N(Cc1ccco1)C1CCCCC1
-7%	Cc1ccc(N(CC(=O)NCCSCc2ccco2)S(=O)(=O)c2ccc(C)cc2)cc1
-6%	Cc1nn(CC(=O)OCC(=O)Nc2c(C(C)C)cccc2C(C)C)c(C)c1[N+](=O)[O-]
-10%	COc1cccc(C(=O)COc2ccc3c(C)c(Cc4ccccc4)c(=O)oc3c2C)c1
-13%	Cc1cccc(-c2noc(CN(C(=O)/C=C/c3ccccc3Cl)C(C)C)n2)c1
-7%	Cc1ccc(-n2nc(CN3CCOCC3)c(-c3ccccc3)c2N)cc1Cl
-13%	CC(C)(CN=C1NS(=O)(=O)c2ccccc21)CNC(=O)CN1C(=O)c2ccccc2C1=O
-12%	Cc1ccccc1-n1c(=O)cc(N2CCN(C(=O)c3ccco3)CC2)[nH]c1=O
-16%	O=C(CS(=O)(=O)c1cn(Cc2ccccc2Cl)c2ccccc12)N1CCOCC1
-10%	CCOC(=O)C1CCN(CC(O)COc2ccc(C(C)=O)cc2)CC1 (stereo unspecified)
-5%	Cc1ccc(NC(=O)C(C)OC(=O)CCNS(=O)(=O)c2ccc(C)cc2)cc1 (stereo unspecified)
28µM*	Cc1ccc(C(=O)CC(=O)c2cc(Cl)ccc2O)cc1
?	COc1ccc(-c2[nH]c(-c3ccc(C)cc3)nc2SCC(=O)NC2CCCC2)cc1
-6%	O=C(Oc1ccccc1-c1nnco1)c1ccccc1
?	Cc1cc(C)cc(OCC(=O)NC2CCCc3ccccc32)c1 (stereo unspecified)
-7%	O=C(COC(=O)c1cc(-c2ccccc2)nc2ccccc12)Nc1ccc2c(c1)OCO2
?	N#CC1=C(Nc2ccccc2)SC=C(c2ccc(Br)cc2)N=C1N1CCOCC1
-11%	CC1CN(C(=S)NC(=O)C2CCCCC2)CC(C)O1 (stereo unspecified)
-27%	CCOC(=O)c1cc2c(n(-c3ccccc3)c1=O)CC(C)(C)CC2=O
-13%	COc1cc(/C=N\Nc2nc3ccccc3o2)cc(OC)c1OC
-8%	Cc1ccc(C(=O)N(CN2CCCC2=O)c2ccccc2)cc1C
2.2µM*	C=CCSc1nc2sc3c(c2c(=O)n1CC)CCc1ccccc1-3
-10%	COc1ccc(C(C)=O)cc1CSc1nncn1-c1ccccc1
?	Cc1cc(=O)[nH]c(SCc2nc3ccc([N+](=O)[O-])cc3[nH]2)n1
?	CC(C)COc1ccc(C(=O)Nc2ccc(NC(=O)c3ccco3)c(Cl)c2)cc1
-10%	CC(=O)c1cccc(N(CC(=O)Nc2cccnc2)S(C)(=O)=O)c1
-25%	O=C(CCNc1cc(Cl)cc(Cl)c1)c1cccs1
-6%	COc1ccc(N2CC(=O)N(c3ccccc3)C2=S)cc1
-6%	CC(=O)Nc1sc(NC(=O)c2ccccc2)nc1-c1cccs1
-10%	Cc1sc2nc(C)n(/N=C/c3ccccc3O)c(=O)c2c1C
-24%	Cc1ccc(NC(=O)CCSCCC(=O)Nc2ccc(C)c(C)c2)cc1C
-5%	Cc1nn(-c2ccccc2)c(C)c1CCC(=O)O
?	COc1ccc(-c2nc(C#N)c(N3CCOCC3)o2)cc1OC
-9%	CC(=O)N[C@H]1C[C@@H]1c1ccccc1
-22%	Cc1ccc(CSc2nnc(-c3ccc(NS(=O)(=O)c4ccccc4)cc3)o2)cc1
?	CCCc1cc(=O)n2c([nH]c3ccccc32)c1C#N
-6%	Cc1cccc(C(=O)N2CCN(c3ccc(C(F)(F)F)cn3)CC2)c1C
-4%	CCOC(=O)c1ccc(NC(=O)CCc2nc(-c3ccccc3Cl)no2)cc1
-6%	CCCCCCCC(=O)Nc1ccc(S(=O)(=O)Nc2nccs2)cc1
7.9µM*	c1ccc(Cc2nnc(-c3ccccc3)o2)cc1
3%	CC(C)Oc1ccc(Cc2c(O)nc(NCCCN(C)C)[nH]c2=O)cc1
3%	CCOc1ccc(C(=O)NCC(=O)OCC(=O)N2CCC(C)CC2)cc1
-9%	Cc1ccc(N2CCN(c3ccc(C)cc3)C(CC(=O)O)C2=O)cc1 (stereo unspecified)
2%	CCN(CC)S(=O)(=O)c1ccc(S(=O)(=O)N2CCCC2C(=O)O)cc1 (stereo unspecified)
-12%	Fc1cc(F)c2nc(N3CCOCC3)sc2c1

Remaining list, next part:
HPGD inh	mol
22µM*	CCC(=O)Nc1sc(C(=O)OC)c(C)c1C(=O)OC
?	COC(CNC(=O)c1cc(Sc2nnc(C)s2)nc2ccccc12)OC
-2%	CCC1=C(OC(=O)N(CC)CC)N2C(=O)OC(=NCC(=O)OC)[C@]2(C)[C@H]2C1=CC[C@H]1C(=O)N(CC(=O)OC)C(=O)[C@H]12
-7%	O=C(O)C1OC2OC3(CCCCC3)OC2C2OC3(CCCCC3)OC12 (stereo unspecified)
-4%	S=c1sc(SCCOc2ccccc2)nn1-c1ccccc1
-7%	CCN(CC)CCOc1ccc2c(c1)C(=NO)c1cc(OCCN(CC)CC)ccc1-2
-24%	CCN1C=C(Cc2cccs2)C2=C(C1)C(c1cccs1)C(C#N)=C(N)O2 (stereo unspecified)
1%	CCOc1ccc(CNC(=O)CCCOc2cc(=O)n(C)c3ccccc23)cc1

7 compounds out of the list, sorted by molar mass, falling.
HPGD inh	mol
-2%	CCC1=C(OC(=O)N(CC)CC)N2C(=O)OC(=NCC(=O)OC)[C@]2(C)[C@H]2C1=CC[C@H]1C(=O)N(CC(=O)OC)C(=O)[C@H]12
1%	CCOc1ccc(CNC(=O)CCCOc2cc(=O)n(C)c3ccccc23)cc1
-24%	CCN1C=C(Cc2cccs2)C2=C(C1)C(c1cccs1)C(C#N)=C(N)O2 (stereo unspecified)
-7%	O=C(O)C1OC2OC3(CCCCC3)OC2C2OC3(CCCCC3)OC12 (stereo unspecified)
-4%	S=c1sc(SCCOc2ccccc2)nn1-c1ccccc1
22µM*	CCC(=O)Nc1sc(C(=O)OC)c(C)c1C(=O)OC
-12%	Fc1cc(F)c2nc(N3CCOCC3)sc2c1

Following part.
HPGD inh	mol
-5%	C[C@H](C[C@H](N)C(=O)O)C(=O)O
?	COc1ccc(Cn2c(SCc3cc(C)ccc3C)nc3cc(OC)c(OC)cc3c2=N)cc1
?	Cc1cccc(C=Nc2ccc3c4c(cccc24)CC3)c1O
-10%	CCN1C(=O)N(C)[C@@H](c2ccccc2)C(C(=O)OC)=C1C
-21%	O=C(CSc1ccc(-c2ccccc2)nn1)N1CCCc2ccccc21
5%	N#Cc1cccc(C(c2nnnn2Cc2ccccc2)N2CCCC2)c1 (stereo unspecified)
-6%	Cc1cccc(NC2=C(NCCO)C(=O)c3ccccc3C2=O)c1
-3%	COc1ccc(OC)c(N(CC(=O)N2CCCC2)S(=O)(=O)c2ccc(OC)c(OC)c2)c1
?	COc1ccc(OC)c(C2NC(=O)c3sc(=S)n(-c4ccccc4)c3N2)c1 (stereo unspecified)
-5%	Cc1ccc(NC(=O)CCC(=O)O)cc1F
-6%	CN(C)CC/C=C1\c2cc(F)ccc2CSc2ccccc21
2%	O=C(Cc1ccccc1)Nc1cccc(-c2nc3ncccc3o2)c1
-3%	CCCCN1C(=O)CCC(C(=O)O)C1c1ccc(OC)cc1 (stereo unspecified)
-4%	Cc1nn(C)c(C)c1/C=N/NC(=O)CCn1cc([N+](=O)[O-])cn1
-2%	O=C(Nc1ccc2c(c1)OCCO2)c1ccncc1
-12%	COc1ccc(CCN2C(=O)CC(Sc3ncccc3C(=O)O)C2=O)cc1OC (stereo unspecified)
1%	O=C1c2ccccc2C(=O)N1CC1c2ccccc2CCN1S(=O)(=O)c1cnc[nH]1 (stereo unspecified)
?	CCc1nn2c(N3CCOCC3)cc(C)nc2c1-c1ccc(F)cc1
-7%	O=C(CN1CCN(Cc2ccccc2Cl)C1=O)N1CCCCCC1
2.8µM*	O=C(CCCCCn1c(=S)[nH]c2ccc(Br)cc2c1=O)NCC1CCCO1 (stereo unspecified)
-3%	O=C1[C@@H]2[C@@H]3C[C@@H]([C@H]4ON=C(c5ccc(Cl)cc5)[C@@H]34)[C@@H]2C(=O)N1c1ccc2c(c1)OCO2
-8%	CCOC(=O)C1CCCN(c2c(N3CCOCC3)c(=O)c2=O)C1 (stereo unspecified)
-10%	CCCCN=C(C)c1c(O)c2ccccc2oc1=O
-11%	CCN1CCN(C(=O)c2ccccc2N(Cc2ccccc2)S(=O)(=O)c2ccc(C)cc2)CC1
-12%	Cc1ccc(-n2nc(C)c(NS(=O)(=O)c3ccccc3)c2C)cc1C
-5%	CCCn1c(SCC(=O)NC2CCCCC2C)n[nH]c1=O (stereo unspecified)
-19%	CCN(CC)c1ccc(C(=O)c2ccccc2C(=O)O)c(O)c1
-6%	Cn1cccc1C(=O)N1CCC2(CC1)CN(c1ccncc1)C2
-12%	O=C(COC(=O)c1oc2ccccc2c1CSc1ccc(Cl)cc1)NC1CCCC1
?	COc1ccc2nc(C)cc(SCC(=O)N/N=C/c3c(OC)ccc4ccccc34)c2c1
1%	C=CCSc1ncccc1C(=O)O
-6%	CCn1nnnc1SCC(=O)Nc1sc(C)c(C)c1C#N
-2%	CC(=O)c1ccc(NC(=O)CC(NCCC2=CCCCC2)C(=O)O)cc1 (stereo unspecified)
?	N=C(N)SCc1ccc(Cl)cc1Cl (tested in a mixture with another compound)
-7%	Cn1c(=O)c2c(ncn2CC(COCc2ccc(Cl)cc2)OCc2ccc(Cl)cc2)n(C)c1=O (stereo unspecified)
?	O=c1[nH]c2cc3c(cc2cc1CN(CC1CCCO1)S(=O)(=O)c1ccc(Cl)cc1)OCCO3 (stereo unspecified)
-11%	C/C=C1\C2C=C(C)CC1(N)c1ccc(=O)[nH]c1C2 (stereo unspecified)
?	CC(=O)Nc1cccc2c1C(=O)NC2=O
-12%	CCOC(=O)N1CCC(N2CC34C=CC(O3)C(C(=O)O)C4C2=O)CC1 (stereo unspecified)
-5%	CCOC(=O)C(NC(=O)NCc1ccccc1OC)(OCC)C(F)(F)F (stereo unspecified)
-13%	Cn1c(=O)[nH]c(=O)c2c1nc(N1CCN(CCO)CC1)n2CCSc1nc2ccccc2s1
-7%	Nc1cc(=O)nc(SCC(=O)NCc2ccccc2)n1CCc1ccccc1
-8%	COc1ccc(/C(N)=C/C(=O)C(C)(C)C)cc1
-9%	O=C(CCCC(=O)N(CC(=O)NC1CCCC1)Cc1ccccc1Cl)Nc1ccccn1
-12%	Cc1ccccc1N/C(SCc1ccc(Cl)cc1)=C(/C#N)C(=O)NCc1ccco1
-8%	CC(NC(=O)C(=O)NN=C1CCC(C(C)(C)C)CC1)c1ccccc1 (stereo unspecified)
-3%	Cc1cc(C)c2nc(N3CCCC(C(=O)NCCCN4CCOCC4)C3)sc2c1 (stereo unspecified)
-2%	O=C(CNC(=S)N(CCCN1CCOCC1)Cc1cccs1)NCCCN1CCOCC1
-24%	COc1ccccc1/C=N/NC(=O)c1ccc(-c2ccccc2)cc1
-4%	CC(=O)[C@H]1[C@H](CCc2ccccc2)NC(=O)N(Cc2ccccc2)[C@@H]1C
-10%	CC1(C)CC(=O)c2cc(C(=O)O)c(=O)n(-c3ccccc3)c2C1

Compound activity deposited in PubChem BioAssay by National Center for Advancing Translational Sciences (NCATS).

Some of the compounds tested, so the mix of outcomes need not match the whole.
